Screens as filed in PubChem.
D2 PAM = Beta-Arrestin HTS for Positive Allosteric Modulators of the Human D2 Dopamine Receptor: Potentiators | D(2) dopamine receptor (Homo sapiens), P14416 | DiscoveRx D2 beta-arrestin cells, luminescence, 90 min; 100% = 57 uM dopamine signal | potentiation, % (test concentration not listed) | actives 0.23% (n = 360,000) | AID 624464, 2012; active = potentiation of 50% or more; inconclusive = 30% to 50%; inactive = 30% or less;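 further: compound concentration not given in the record; tested on top of an EC20 dose of dopamine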
Target sequence (P14416 whole entry, looked up): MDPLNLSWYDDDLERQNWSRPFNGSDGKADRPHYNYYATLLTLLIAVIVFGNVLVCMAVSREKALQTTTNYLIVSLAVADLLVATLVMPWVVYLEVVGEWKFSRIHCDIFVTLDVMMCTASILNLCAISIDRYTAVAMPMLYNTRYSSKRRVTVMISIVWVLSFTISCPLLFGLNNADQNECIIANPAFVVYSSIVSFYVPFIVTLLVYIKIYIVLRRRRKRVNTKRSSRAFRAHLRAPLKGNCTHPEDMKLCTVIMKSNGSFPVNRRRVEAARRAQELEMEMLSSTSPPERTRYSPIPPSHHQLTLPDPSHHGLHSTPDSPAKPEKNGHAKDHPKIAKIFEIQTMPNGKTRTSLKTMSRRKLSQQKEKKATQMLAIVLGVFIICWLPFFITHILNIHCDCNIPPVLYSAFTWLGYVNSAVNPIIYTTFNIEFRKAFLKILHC
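PathHunter D2 cells, attached overnight at 37 deg C, received compound in DMSO plus dopamine at EC20 (50 nM final) for 90 min at 37 deg C. Beta-arrestin recruitment was read as luminescence after 1 h with detection reagent at ambient temperature.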
D2 agonist = Beta-Arrestin HTS for Positive Allosteric Modulators of the Human D2 Dopamine Receptor: Agonists; DiscoveRx PathHunter D2 beta-arrestin, luminescence, 90 min; 100% = 57 uM dopamine signal; AID 624465, 2012; activation, % (concentration not given with the values); D(2) dopamine receptor (Homo sapiens), P14416; actives 0.084% (n = 360,000); in the data active = activation above about 40%; inconclusive = about 15% to 40%; inactive = below about 15%; further: compound concentration not given in the record; the text of the record calls up to 30% inactive
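DiscoveRx PathHunter D2 beta-arrestin cells (2,100/well) attached overnight, then compound-stimulated 90 min at 37 C in HBSS/10 mM HEPES/0.1% Tween-20 buffer; beta-galactosidase complementation read by luminescence after 1 h at ambient temperature. Dopamine 57 uM final (EC100) as control.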
TRPML1 agonist = qHTS for Agonists of the Human Mucolipin Transient Receptor Potential 1 (TRPML1); Mucolipin-1 (Homo sapiens), Q9GZU1; AID 624414, 2012; activation, % (concentration not given with the values); actives 0.12% (n = 410,000); TRPML1-expressing cells, Ca2+ dye fluorescence, FDSS; host cell line not named in the record; reference of the full effect not given here; in the data active = activation above about 50%; inconclusive = about 30% to 50%; inactive = below about 30%; further: 0% is about no effect; the text of the record puts the active cut at 80%
Target sequence (Q9GZU1 whole entry, looked up): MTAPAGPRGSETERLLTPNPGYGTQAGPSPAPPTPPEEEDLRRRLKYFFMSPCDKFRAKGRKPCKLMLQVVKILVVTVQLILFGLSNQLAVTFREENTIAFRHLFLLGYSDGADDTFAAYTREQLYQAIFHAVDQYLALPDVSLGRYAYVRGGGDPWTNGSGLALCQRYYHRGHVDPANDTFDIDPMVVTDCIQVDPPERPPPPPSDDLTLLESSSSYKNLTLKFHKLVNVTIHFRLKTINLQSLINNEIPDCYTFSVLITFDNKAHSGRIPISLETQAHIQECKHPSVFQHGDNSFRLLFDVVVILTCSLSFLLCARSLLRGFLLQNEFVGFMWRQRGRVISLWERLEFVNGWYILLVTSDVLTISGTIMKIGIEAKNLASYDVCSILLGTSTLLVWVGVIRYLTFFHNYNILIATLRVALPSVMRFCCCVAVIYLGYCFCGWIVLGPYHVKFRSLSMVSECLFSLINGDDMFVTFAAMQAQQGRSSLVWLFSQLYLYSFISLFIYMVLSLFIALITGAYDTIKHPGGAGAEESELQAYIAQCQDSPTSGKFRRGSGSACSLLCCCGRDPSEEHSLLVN
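Tetracycline-induced TRPML1-DL cells are seeded and incubated overnight before loading with a no-wash Ca2+ dye and quencher. Agonist activity is taken from the 110 s fluorescence read following compound pin-transfer on an FDSS, before EC80 54-4 challenge.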
PINK1 expr mod = A Quantitative High throughput Screen to Identify Chemical Modulators of PINK1 Expression; PINK1 immunofluorescence, high-content cytometry, 24 h; Potency, µM (doses to about 76.6 µM), for the others: at the top dose activation (PINK1 increase), hits mostly activators; actives 0.2% (n = 410,000); AID 624263, 2012; active = well fitted activation curve with a large enough effect; inconclusive = small, poorly fitted or top-dose-only effect; inactive = flat fitted curve, though single readings scatter; cell line not stated here;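 further: potency means the concentration at half of the fitted maximal effect; % of control where 0% means no effect; nearly all actives have a fitted effect of over 65% in size; a mitochondrial uncoupler was the plate control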
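A stable cell line was treated with compounds at 5 concentrations for 24 hours, with CCCP as control. PINK1 levels and mitochondrial localization were measured by immunofluorescence with mitochondrial, cell and nuclear markers after fixation, read by laser-scanning cytometry.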
CtBP-E1A blk = qHTS Assay for Inhibitors of the CtBP/E1A Interaction. CtBP / adenovirus E1A interaction (AlphaScreen). AID 651724, 2012. activity change, % (concentration not given with the values). actives 0.49% (n = 340,000). AlphaScreen GST-E1A/His-CtBP binding, 1536-well; active compounds read low; control for the full effect not named in the record; in the data active means activity change below about -65%; inconclusive means about -30% to -65%; inactive means above about -30%; further: on the % scale 0 is the no-effect control and ±100 the full control effect
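Protein mix (5X: 125 nM each GST-E1A, His-CtBP) was incubated with pinned compound 2 h at 37 deg C in dark, in 50 mM Tris pH 8.0 buffer with 300 mM NaCl. Glutathione donor and nickel acceptor beads followed; AlphaScreen signal read after 1 h.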
Six1-Eya2 blk = qHTS Assay for Inhibitors of the Six1/Eya2 Interaction; Homeobox protein SIX1 (Homo sapiens) + Protein phosphatase EYA2 (Homo sapiens), …; AlphaScreen GST-Six1/His-Eya2 binding, biochemical; active compounds read low; control for the full effect not named in the record; activity change, % (no concentration beside the values); actives 0.56% (n = 360,000); AID 651725, 2012; in the data active = activity change below about -65%; inconclusive = about -30% to -65%; inactive = above about -30%; further: on the % scale 0 is the no-effect control and ±100 the full control effect
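GST-Six1 + His-Eya2 (5X stock: 250/500 nM); Tris pH 8.0, 300 mM NaCl, 0.05% BSA, 0.02% Tween 20; GSH donor/Ni acceptor beads; 1 h 37 °C dark; AlphaScreen readout.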
Numbers without * were called inactive; u = inconclusive; x = no result given; [ ] = another dose, or the depositor's remark.

SMILES	D2 PAM	D2 agonist	TRPML1 agonist	PINK1 expr mod	CtBP-E1A blk	Six1-Eya2 blk
O=C(CCN1C(=O)C2C3CCC(C3)C2C1=O)OCC(=O)c1cccc([N+](=O)[O-])c1 (stereo not given)	-50	-15	0.0	8.7%	5	-1
Cc1cc2c(cc1C)CSC(c1ccc(O)cc1)SC2	1	2.8	4.4	u	-4	-3
CCc1nc2ccc(C(=O)N(CC)CC(=O)Nc3c(F)cccc3F)cc2nc1CC	0	0.3	0.5	-2.0%	-22	-4
COC(=O)c1ccc2c(=O)n(CCN3CCOCC3)c(SCC(=O)Nc3cccc(OC)c3)nc2c1	-6	0.3	-1.1	2.2%	4	0
C/C(=N\NC(=O)CCC(=O)Nc1ccc(C)c(C)c1)c1cccs1	-6	-1.6	1.5	1.2%	x	5
CCN1CCN(c2ccc(S(=O)(=O)N3CCOCC3)cc2NC(=O)CCSC)CC1	1	-2.8	-0.8	0.4%	x	-1
O=C(Nc1ccccc1Cl)c1cc(C2CCCN(C(=O)CCc3ccccc3)C2)on1 (stereo not given)	0	0.6	0.2	0.6%	-18	4
CS(=O)(=O)N1CCC(Oc2ccccc2C(=O)N2CCC[C@H]2CO)CC1	-9	-1.1	-0.6	0.4%	-6	1
Cc1ccc(S(=O)(=O)CCC(=O)OCc2ccccc2F)cc1	-4	0.8	1.6	2.7%	9	9
O=C(O)c1ccc(O)c(N2C(=O)Nc3ccccc3N2O)c1	-6	-0.7	-0.1	3.0%	1	-2
O=C(O)c1ccccc1N(Cc1ccccc1)C(=O)CO/N=C/c1ccccc1	-5	-0.8	0.1	-3.0%	-1	-12
COc1cccc(CC(=O)Nc2ccc(F)c(S(=O)(=O)N3CCOCC3)c2)c1	-4	1.4	-0.1	1.3%	0	8
O=C(CSc1nnc(C2COc3ccccc3O2)o1)N1CCN(c2ccccc2)CC1 (stereo not given)	-5	-1.7	-0.7	2.9%	2	5
Cc1ccc2nc(C3CCCCC3)c(Cc3cccc(Cl)c3)n2c1	-9	-6.2	-0.4	u	0	-7
O=C(NCc1ccccc1)c1ccc(OC2CSC2)cc1	-1	-1.5	0.8	6.9%	-7	1
O=C(N/N=C/c1cn(Cc2ccccc2)c2ccccc12)c1ccncc1	-11	-1.2	-0.5	-0.6%	-15	3
S=c1[nH]nc(-c2ccc3ccccc3n2)n1Cc1ccccc1	-27	1.0	-0.8	12%	1	2
CCOc1nc(Oc2cccc(C(=O)O)c2)nc(Oc2cccc(C(=O)O)c2)n1	-24	-1.2	-0.2	-0.1%	5	-1
Cc1ccc2[nH]c(=O)c(C(c3nnnn3Cc3ccccc3)N3CCc4ccccc43)cc2c1 (stereo not given)	0	1.6	1.0	-0.9%[38.3 µM]	-13	-11
CCOC(=O)C1=C(C)Nc2ccccc2N/C1=N\S(=O)(=O)c1ccccc1	0	-7.0	-0.5	0.6%	0	1
CCNC(=O)C1CCCN(C(=O)c2ccc(C(F)(F)F)cc2)CC1 (stereo not given)	0	-2.9	-0.6	-0.7%	-1	5
CCOc1ccc(C(=O)N/N=C/c2cc(Cl)ccc2[N+](=O)[O-])cc1	-9	-3.4	0.4	14%	-25	3
Cc1cc(C)c(C(=O)NC2CC(C)(C)Cc3c2cnn3-c2cccc(F)c2)[nH]1 (stereo not given)	-18	-3.3	0.7	5.0%	-3	-10
Cc1ccc(S(=O)(=O)N(CC(=O)N2CCC(C)CC2)c2cccc(C)c2)cc1	-11	-5.6	1.9	0.3%	-1	0
CCc1ccc(C(=O)C(C)OC(=O)Cn2cnc3c2c(=O)n(C)c(=O)n3C)cc1 (stereo not given)	0	0.8	-0.4	3.3%	-23	4

One compound at a time, as listed above. Order of values: D2 PAM	D2 agonist	TRPML1 agonist	PINK1 expr mod	CtBP-E1A blk	Six1-Eya2 blk
Shown for CCc1ccc(C(=O)C(C)OC(=O)Cn2cnc3c2c(=O)n(C)c(=O)n3C)cc1 (stereo not given) : 0	0.8	-0.4	3.3%	-23	4
Shown for COc1cccc(CC(=O)Nc2ccc(F)c(S(=O)(=O)N3CCOCC3)c2)c1 : -4	1.4	-0.1	1.3%	0	8
Shown for Cc1cc(C)c(C(=O)NC2CC(C)(C)Cc3c2cnn3-c2cccc(F)c2)[nH]1 (stereo not given) : -18	-3.3	0.7	5.0%	-3	-10
Shown for O=C(N/N=C/c1cn(Cc2ccccc2)c2ccccc12)c1ccncc1 : -11	-1.2	-0.5	-0.6%	-15	3
Shown for O=C(CCN1C(=O)C2C3CCC(C3)C2C1=O)OCC(=O)c1cccc([N+](=O)[O-])c1 (stereo not given) : -50	-15	0.0	8.7%	5	-1

(listing goes on)
SMILES	D2 PAM	D2 agonist	TRPML1 agonist	PINK1 expr mod	CtBP-E1A blk	Six1-Eya2 blk
CC(=O)Nc1nc2ccccc2[nH]1	-32	-2.4	3.3	0.7%	x	-1
COc1ccc(C(C)=O)cc1COC(=O)c1cnc(Cl)c(Cl)c1	-11	-0.3	0.6	2.3%	10	32
CCCCn1c(N)c(N(Cc2ccccc2OC)C(=O)CN2C(=O)NC(C)(c3ccccc3)C2=O)c(=O)[nH]c1=O (stereo not given)	-2	2.4	0.2	-2.4%	-4	4
CCC1=C(OC(=O)N(CC)CC)N2C(=O)OC(=NCC(=O)OC)[C@]2(Cc2ccccc2)[C@H]2C1=CC[C@H]1C(=O)N(c3ccccc3)C(=O)[C@H]12	-8	-2.9	0.8	-0.5%	-2	1
Cc1ccc(NC(=O)CCNC(=O)c2ccc(Cl)cc2)cc1F	-12	-0.4	-0.1	1.0%	5	6
Cc1cccc2cc(CN(C(=S)NCC(C)C)C3CCCC3)c(=O)[nH]c12	-22	-2.8	0.2	1.6%	3	-2
Cc1cc(OCCCN2CCCC2)ccc1Cl	-5	1.6	-0.2	0.0%	x	9
COc1ccccc1Cc1nc(-c2ccncc2)no1	-10	-5.1	4.8	8.1%	13	10
O=C(CCN1CCN(CCO)CC1)Nc1ccc(C2CCCC2)cc1	-3	-5.4	0.9	6.4%	x	3
O=C(N/N=C/c1cccnc1)c1cc(-c2ccccc2Cl)nc2ccccc12	-1	0.8	-1.1	3.3%	1	-15
COc1cc(NC(=S)NC(=O)c2ccccc2F)ccc1NC(=O)c1ccco1	-32	-4.7	-0.5	15%	3	2
Cc1ccc2nsnc2c1NC(=O)CCc1ccccc1	-1	-1.0	-0.8	-2.1%	14	1
Cc1ccc(C)c(N(CC(=O)NCc2ccco2)C(=O)CCC(=O)Nc2ccccn2)c1	5	-1.0	0.9	-0.2%	-3	-10
CCN(CC)C(=O)CSC(Nc1cccc(F)c1)=C(C#N)C#N	1	1.4	5.4	10%	0	-2
COc1ccc(/C=N/NC(=O)CN2CCN(Cc3ccccc3)CC2)cc1Br	-22	-2.2	0.2	0.9%	-8	-2
C=CCNC(=O)CC1C(=O)NCCN1Cc1ccc(-c2ccccc2)cc1 (stereo not given)	-10	-3.3	-0.3	1.3%	x	-6
Nc1cnn(Cc2ccccc2F)c1	-5	-5.2	0.7	3.9%	x	-7
O=C(Cn1c(COc2ccccc2)nc2ccccc21)Nc1cc(Cl)ccc1Cl	0	-0.7	1.1	11%	5	8
COc1cc2[nH]cc(C(=O)NCc3ccccc3)c(=O)c2cc1OC	-4	4.6	x	2.4%	x	u
CC(=O)Nc1ccc(OCC(O)Cn2ccnc2C)cc1 (stereo not given)	1	-1.2	1.8	1.3%	3	6
O=C(CN1CCN(c2ccccc2)CC1)N1CCN(c2ccccc2)CC1	-11	6.8	-0.5	-2.1%	8	-3
O=C(Nc1ccc(Cl)c(S(=O)(=O)N2CCOCC2)c1)c1ccccn1	-4	3.8	0.4	-0.8%	0	-2
O=c1c2ccccc2nnn1Cc1ccccc1Cl	-6	-1.0	1.1	5.6%	-1	9
Cc1cccc(C)c1NC(=O)CNC(=O)c1ccc(NS(=O)(=O)c2ccc3[nH]c(=O)[nH]c3c2)cc1	-4	-2.4	1.1	u	2	3
COc1cccc(CN2CC(C(=O)NCCN3CCOC3=O)CCC2=O)c1 (stereo not given)	-10	-1.2	-1.1	1.1%	-4	1
SMILES	D2 PAM	D2 agonist	TRPML1 agonist	PINK1 expr mod	CtBP-E1A blk	Six1-Eya2 blk
CCOc1ccc(/C=C2\NC(=S)NC2=O)cc1	-14	0.7	x	-0.5%	-9	7
COc1ccccc1NC(=O)C(CC(=O)O)Cc1cc(C)cc(C)c1 (stereo not given)	-10	-3.7	0.0	-0.4%	0	-1
CC(C(=O)N1CCc2ccccc21)N(C)CC(=O)Nc1ccc(F)cc1 (stereo not given)	-42	-5.1	52*	-0.7%	5	-2
CCc1ccc(N=C2NC(=O)/C(=C/c3cc(OC)c(OC)c(OC)c3)S2)cc1	-9	1.4	1.5	1.5%	11	-8
COc1ccccc1N1CC(C(=O)Nc2nnc(SCc3ccccn3)s2)CC1=O (stereo not given)	-19	0.6	-0.1	0.6%	-1	2
Brc1ccc(-c2nnc(-c3cccc(Br)c3)o2)cc1	-5	-2.5	-1.0	8.6%	1	3
COc1cccc(C2/C(=C(\O)c3ccc4c(c3)OCCO4)C(=O)C(=O)N2Cc2cccnc2)c1 (stereo not given)	-5	-2.9	-0.2	-0.3%	2	6
CCOc1ccc(-n2c(SCC(=O)Nc3ccc(CC)cc3)nc3n[nH]c(C)c3c2=N)cc1	0	u	-0.5	0.4%	1	-2
NNC(=O)CCc1c[nH]c2ccccc12	-6	-3.3	-0.7	0.7%	-2	-3
Nc1ccc(C(=O)N/N=C2\CCCc3c2[nH]c2ccccc32)cc1	4	-4.0	-0.3	-3.4%	-11	-5
CN(C(=O)c1ccc2c(c1)OCO2)C1CCCCC1	4	-1.6	-0.6	1.0%	11	2
Cc1ccc(S(=O)(=O)Cn2nnnc2C(C(C)C)N2CCC(O)CC2)cc1 (stereo not given)	-8	3.8	-0.1	2.2%	1	8
CN(c1cccc(NC(=O)CN(c2ccc(Cl)c(Cl)c2)S(=O)(=O)c2ccccc2)c1)S(C)(=O)=O	-7	-0.2	0.2	0.8%	5	-2
CCOc1ccc(/C=N/NC(=O)C2CC2)cc1OC	0	-19	-0.1	-1.8%	-2	-12
CCN1CCN(c2cc(-c3ccccc3)nc3cc(-c4cccc(F)c4)nn23)CC1	-26	-3.5	1.7	-2.2%	4	10
COc1ccc2[nH]c(=O)c(-c3nnn(-c4ccc(Cl)nc4)n3)cc2c1	-12	-5.1	-0.6	1.2%	-3	-4
Cc1[nH]c2ccc(C(=O)N3CCC(C(N)=O)CC3)cc2c1C	-14	-1.3	1.6	0.0%	3	0
CCN(c1ccccc1)S(=O)(=O)c1ccc(C(=O)Nc2ncccc2O)cc1	-36	-1.2	0.3	3.6%	-3	-4
COc1cc2c3c(c1)-c1c(sn(-c4cc(OC)ccc4OC)c1=S)C(C)(C)N3C(=O)C2=O	-5	1.3	0.0	x	0	11
